Assay outcomes deposited in PubChem BioAssay by National Center for Advancing Translational Sciences (NCATS).
N370S GC – inhibits or activates N370S mutant glucocerebrosidase; P04062; N370S GC spleen homogenate, 4MU-glucoside fluorescence; Potency, µM (highest dose often 59.4 µM), for the others: at the top dose activity change, negative = inhibition, hits mostly inhibitors; 330,000 compounds, 0.092% hits;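 further: 0% = full enzyme activity and -100% = no enzyme basal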
TDP1 inh – blocks human tyrosyl-DNA phosphodiesterase 1. 350,000 compounds, 0.28% hits. recombinant TDP1, AlphaScreen DNA substrate cleavage. Q9NUW8. Potency, µM (titrated, usually from 130 µM), for the others: at the highest dose activity change, negative = inhibition, most hits filed as inhibitors; further: nearly all actives have a fitted effect of over 40% in size
Target sequence (Q9NUW8 whole entry, looked up): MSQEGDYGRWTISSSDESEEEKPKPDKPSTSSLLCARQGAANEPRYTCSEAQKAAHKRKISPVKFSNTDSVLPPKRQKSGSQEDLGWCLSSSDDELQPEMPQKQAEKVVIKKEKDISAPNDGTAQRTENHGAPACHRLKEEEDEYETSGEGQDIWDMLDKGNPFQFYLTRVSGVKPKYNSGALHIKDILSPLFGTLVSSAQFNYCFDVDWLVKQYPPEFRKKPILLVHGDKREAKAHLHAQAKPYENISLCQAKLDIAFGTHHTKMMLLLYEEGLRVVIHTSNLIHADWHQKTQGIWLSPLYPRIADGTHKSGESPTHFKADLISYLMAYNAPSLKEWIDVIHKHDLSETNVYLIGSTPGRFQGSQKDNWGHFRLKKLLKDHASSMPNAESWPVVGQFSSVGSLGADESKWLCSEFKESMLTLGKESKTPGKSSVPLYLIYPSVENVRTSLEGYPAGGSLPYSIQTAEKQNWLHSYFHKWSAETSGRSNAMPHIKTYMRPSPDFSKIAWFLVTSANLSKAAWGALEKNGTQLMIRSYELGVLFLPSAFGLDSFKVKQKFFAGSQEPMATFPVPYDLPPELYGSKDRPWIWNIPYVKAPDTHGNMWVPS
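Recombinant E. coli-expressed Tdp1 (1 nM) preincubated with compound 15 min at RT, then 5'-biotin/3'-phosphotyrosine-FITC DNA substrate (15 nM) added for 5 min. AlphaScreen beads (10 ug/ml) added, 10 min RT; tyrosine-FITC cleavage read as signal loss.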
Starred values were filed as active, the others as inactive; ? = inconclusive; · = no result given; & = joins results of further samples; [ ] = remark or other dose. The call rests on the fitted dose curve; in most records, active means well fitted curve in the direction sought with a large enough effect; inconclusive means small, poorly fitted or top-dose-only effect, or another doubt; inactive means no such curve, though single readings can be large; an effect the other way counts as inactive or inconclusive. Unless noted, on the % scale 0 is the no-effect control and ±100 the full control effect; potency means the concentration at half of the fitted maximal effect. A portion of the library; most or all hits stand in other tables.

smiles | N370S GC | TDP1 inh
Cc1ccc(C(=O)N/N=C\c2ccncc2)s1 | -10% | -2%
COC(=O)c1c(NC(=O)CSc2nnc(CNc3ccc(Cl)cc3)o2)sc(C)c1C | 19% | 9%
COc1ccc(Cc2nnc(SCC(=O)N(c3ccccc3)C(C)C)n(N)c2=O)cc1 | -13% | 0%
Cc1ccc2nc(NC(=O)CN3C(=O)NC4(CCCCC4)C3=O)sc2c1 | 7% | ·
CCC(=O)Nc1ccc(-c2csc(NNC(C)=O)n2)cc1 | 1% | 3%
O=C(O)C1CC(=O)N(c2ccc(OCc3ccc(Br)cc3)cc2)C1 (centres undefined) | -8% | ·
CCN(C(=O)CSc1nc2ccc(C)cc2[nH]1)C1CCS(=O)(=O)C1 (centres undefined) | · | 2%
Cc1cc(=O)[nH]c(SCC(=O)c2ccc(C(C)C)cc2)n1 | -7% | 0%
CCOC(=O)C1=NNC(C(=O)c2ccc(C)cc2)C1c1ccc(OC)cc1 (centres undefined) | 12% | 2%
O=C(Nc1ccccc1)c1ncoc1-c1ccc(Cl)cc1 | -27% | 6%
CCOC(=O)c1sc2nc(-c3ccccc3)ccc2c1N | -2% | 0%
COc1ccccc1NC(=O)c1ccc(NC(=O)CNC(=O)c2ccc(OC)c(OC)c2)cc1 | -14% | 4%[0.0935 µM]
CCc1cc(=O)oc2c(C)c(OCC(=O)NCC3CCC(C(=O)O)CC3)ccc12 (centres undefined) | -10% | ·
CCOc1ccc2[nH]c(C)c(CN3CCN(C)CC3)c(=O)c2c1 | 21% | 2%
CCOC(=O)c1sc(NC(=O)COC(=O)C(CCSC)NC(C)=O)nc1C (centres undefined) | 2% | 3%
O=C(COC(=O)C1CC2CCCC(C1)C2=O)NC(=O)c1ccc(OC(F)F)cc1 (centres undefined) | -3% | -1%
O=C(CNCc1cccc(Cl)c1)N1CCc2ccccc2C1 | -17% | ·
COc1ccccc1NC(=O)c1ccc(S(=O)(=O)N2CCOCC2)cc1 | -5% | 4%
CC(=O)c1ccc(Oc2cc(C)nc(-n3nc(C)cc3C)n2)cc1 | ? | 8%
COc1cc(-c2nnc(COc3ccc4ccccc4c3)o2)cc(OC)c1OC | 5% | 2%
O=C1Nc2cccnc2N(C(=O)CCl)c2ccccc21 | -15% | ·
CCC(CCC(=O)Nc1cccc(C(=O)O)c1)C(=O)O (centres undefined) | 6% | 0%
COCC(=O)N(Cc1cc2ccc(C)c(C)c2n2nnnc12)C1CCCC1 | 8% | 5%
NC(=O)C1CCN(C(=O)C2CC(=O)N(c3ccc(F)cc3)C2)CC1 (centres undefined) | -11% | 1%
Cc1cc(C)nc(NS(=O)(=O)c2ccc(NC(=O)C(C)C)cc2)n1 | -7% | ·
COC(=O)c1cccc(NC(=O)CCSc2ccc(Cl)cc2)c1C | -16% | 3%
CCOc1ccc(C(=O)NNC(=O)C2CC(=O)N(c3ccc(C)cc3)C2)cc1 (centres undefined) | -11% | -3%
O=C(CN1C(=O)C2C3C=CC(C3)C2C1=O)Nc1cccc2c1CCCC2 (centres undefined) | 12% | 2%
Cc1oc(-c2ccoc2)nc1CN(Cc1ccccc1)CC1CC1 | -3% | 5%
CCOC(=O)/C(C)=C1\NC(C)(C)Cc2ccccc21 | -1% | 6%
CCOC(=O)c1ccc2c(c1)N(Cc1ccccc1C)C(=O)c1ccccc1S2=O (centres undefined) | -2% | 0%
O=S(=O)(N1CCCCC1)n1nnc2ccccc21 | 10% | 3%
COc1cc(/C=C/c2cccc[n+]2C)ccc1OCC(=O)Nc1cccc(Cl)c1 | -2% | ·
CSc1ccc(CN(C)CC(=O)Nc2ccc(NC(C)=O)cc2)cc1 | 0% | 7%
Cc1ccc(SCC(=O)N2N=CCC2c2ccccc2)cc1 (centres undefined) | 18% | -5%
Cc1nc2c(sc(=S)n2Cc2ccco2)c(=O)n1CC(=O)Nc1cc(F)ccc1F | -3% | 6%
Cc1cc(C)cc(OCCCCn2cncn2)c1 | -2% | ·
COc1ccc2cc(C3(C)NC(=O)N(CC(=O)NCc4ccco4)C3=O)ccc2c1 (centres undefined) | 8% | -10%
O=C(NCc1cccs1)C1CCCN1C(=O)NC1CCCCC1 (centres undefined) | 0% | 3%
COc1ccc(C(=O)NNC(=O)Cc2ccc(Cl)cc2)cc1 | 5% | -8%

Of the compounds above, 3 have an NH in an aromatic ring.
smiles | N370S GC | TDP1 inh
CCN(C(=O)CSc1nc2ccc(C)cc2[nH]1)C1CCS(=O)(=O)C1 (centres undefined) | · | 2%
Cc1cc(=O)[nH]c(SCC(=O)c2ccc(C(C)C)cc2)n1 | -7% | 0%
CCOc1ccc2[nH]c(C)c(CN3CCN(C)CC3)c(=O)c2c1 | 21% | 2%

Further records follow:
smiles | N370S GC | TDP1 inh
O=C(CN1CCCCC1)Nc1ccc(NC(=O)c2ccccc2Cl)cc1Cl | -12% | 0%
COc1ccccc1NS(=O)(=O)c1cccc(NC(=O)c2nc3nc(C)cc(C)n3n2)c1 | -2% | 2%
COc1ccc(C2C(C#N)=C(N)Oc3cc(O)ccc32)cc1C (centres undefined) | -2% | ·
Cc1ccc(CNC(=O)c2cnccn2)cc1 | 4% | 2%
C=CCN1C(=O)C(CC(=O)Nc2ccc(OCC)cc2)N(Cc2ccccn2)C1=S (centres undefined) | 1% | 4%
O=C(CN(CCc1ccccc1)C(=O)CNS(=O)(=O)c1ccc(F)cc1)NCC1CCCO1 (centres undefined) | 2% | 5%
Cc1ccc(N2CCN(c3ccc(C)cc3)C(CC(=O)O)C2=O)cc1 (centres undefined) | 2% | 2%
O=C(CN1C(=O)/C(=C\C=C\c2ccccc2)SC1=S)Nc1ccc(F)cc1 | -1% | 3%
Cc1c(C)n(C)c2ccc(C(=O)NCCCN3CCOCC3)cc12 | -2% | 8%
O=C(c1cccnc1Nc1ccccc1F)N1CCOCC1 | ? | 0%

Not a retest: three of the compounds above.
smiles | N370S GC | TDP1 inh
O=C(CN1CCCCC1)Nc1ccc(NC(=O)c2ccccc2Cl)cc1Cl | -12% | 0%
COc1ccccc1NS(=O)(=O)c1cccc(NC(=O)c2nc3nc(C)cc(C)n3n2)c1 | -2% | 2%
COc1ccc(C2C(C#N)=C(N)Oc3cc(O)ccc32)cc1C (centres undefined) | -2% | ·

Further compounds follow.
smiles | N370S GC | TDP1 inh
CCOC(=O)N1CCN(C2=Nc3cccc4cccc2c34)CC1 | -5% | 2%
Cc1cccc(NC(=O)CSc2nnc(-c3cc(C)n(-c4ccccc4)c3C)o2)c1C | 0% | 4%
C=CCSc1nc2c(c(=O)[nH]1)C(c1ccccc1)C(C#N)=C(N)O2 (centres undefined) | 9% | -1%
COc1ccc(N(CC(=O)NCCSC2CCCCC2)S(=O)(=O)c2ccccc2)cc1OC | -8% | 2%
C=CCC1(C)C(=O)N(c2ccccc2)c2ccccc21 (centres undefined) | 1% | 4%
O=C(NCc1cccc(C(F)(F)F)c1)c1cccc(S(=O)(=O)NCc2ccccc2)c1 | -8% | 3%
CCOC(=O)N1C=CC=C[C@@H]2[C@@H](N3C(=O)c4ccccc4C3=O)C(=O)N21 | 5% | 5%
CC(=O)c1cccc(Nc2nc(-c3cccnc3)cs2)c1 | -10% | ·
c1ccc(C(c2nnnn2C2CCCCC2)N2CCc3ccccc3C2)nc1 (centres undefined) | 9% | 3%
CC(=O)Nc1ccc2c(CN3C(=O)NC(C)(c4ccc(C)cc4)C3=O)cc(=O)oc2c1 (centres undefined) | 5% | 5%
Cc1ccccc1C(=O)Nc1nnc(CC(=O)N/N=C/c2ccco2)s1 | 5% | 6%
COc1ccccc1N(CC(=O)N1CCC(C(N)=O)CC1)S(=O)(=O)c1ccccc1 | 3% | 2%
CC1=C(CC(=O)c2ccccc2)C(=O)c2ccccc2C1=O | 1% | 12%
COc1ccccc1Nc1nc(N)nc(-c2cc3ccccc3o2)n1 | -3% | 4%
CCN1C(=S)N[C@@H](c2cccs2)C(C(=O)OC)=C1C | -12%&0% | ·
CCCc1c(NC(=O)Nc2ccc(F)cc2)cnn1-c1ccccc1 | 5% | 4%
Cc1cccc(N(Cc2ccccc2)C(=O)CSC(C)C(=O)Nc2cc(C)on2)c1 (centres undefined) | 4% | -2%
Cc1ccc(NC(=O)CCCn2nc(C)c3c(C)n(-c4ccccc4)nc3c2=O)c(Cl)c1 | -10% | -11%&6%
CCOc1cccc(-c2csc(C3COc4ccccc4O3)n2)c1 (centres undefined) | 4% | 4%
c1cncc(-c2nnc3sc(C4CCCCC4)nn23)c1 | 10% | 0%

Some of the entries so far, with values ahead of the structure.
N370S GC | TDP1 inh | mol
10% | 0% | c1cncc(-c2nnc3sc(C4CCCCC4)nn23)c1
5% | 6% | Cc1ccccc1C(=O)Nc1nnc(CC(=O)N/N=C/c2ccco2)s1

Random excerpt: 2 records from the list
smiles | N370S GC | TDP1 inh
Cc1cccc(N(Cc2ccccc2)C(=O)CSC(C)C(=O)Nc2cc(C)on2)c1 (centres undefined) | 4% | -2%
CCOc1cccc(-c2csc(C3COc4ccccc4O3)n2)c1 (centres undefined) | 4% | 4%

Going on with the list.
smiles | N370S GC | TDP1 inh
Cn1c(=O)[nH]c(=O)c2c1nc(SCCC(=O)O)n2Cc1cccc(Br)c1 | 0% | 3%
O=C(O)c1ccc2c(c1)C(=O)N([C@H](Cc1ccccc1)C(=O)O)C2=O | -4% | 4%
CC1=Cc2ccccc2C(C#N)N1C(=O)c1ccccc1 (centres undefined) | 24% | 4%
O=C(c1ccco1)N1CCN(C(=O)C2CCN(S(=O)(=O)c3cccs3)CC2)CC1 | 2% | 3%
CCOc1ccccc1NC(=O)NCc1ccccn1 | -2% | 4%[56.1 µM]
Cc1cc2c(NC(=O)CC(C)(C)CC(=O)O)cccc2nn1 | -11% | -12%
COCCNc1ncnc2c1cnn2Cc1ccc(Cl)cc1 | -13% | 3%
Cc1ccc(NCc2cccnc2)cc1 | 2% | 6%
O=C(Nc1cccn(Cc2ccccc2Cl)c1=O)NC1CCCCC1 | 7% | 4%
Cc1c(N=C2SCC(=O)N2/N=C/c2ccccc2)c(=O)n(-c2ccccc2)n1C | 8% | 0%
C#CCSc1nc2sc3c(c2c(=O)n1C)CCC3 | -5% | ·
Cc1cc(Nc2ccccc2)nc2cc(O)ccc12 | 6% | -1%
COc1ccc(NS(=O)(=O)c2ccc3oc(SC(C)C(N)=O)nc3c2)cc1 (centres undefined) | -6% | 7%
CC(C)(C)C(=O)Nc1nnc(SCC(=O)Nc2ccc3c(c2)OCO3)s1 | 8% | 3%
CC(NC(=O)CCCc1ccccc1)c1ccncc1 (centres undefined) | -6% | ·
CCC(=O)Nc1cccc(NC(=O)CSc2nc3c(c(=O)n(C)c(=O)n3C)n2C)c1 | -7% | ·
Cc1ccccc1SCC(=O)NC1CCOC1=O (centres undefined) | 4% | 2%
CNC(=S)NNC(=O)c1ccccc1F | -4% | -2%
COc1ccc(CCNC(=O)CN2C(=O)c3ccccc3C2=O)cc1 | 2% | 2%
O=C(CNS(=O)(=O)c1ccccc1)NCC(=O)OCc1ccc(C(=O)c2ccccc2)cc1 | -2% | 1%
O=C(COC(=O)c1cccc(S(=O)(=O)N2CCOCC2)c1)NCCc1ccccc1 | -10% | 0%
O=C(CN1C(=O)C2CCCCC2C1=O)Nc1cc(C(F)(F)F)ccc1N1CCCC1 (centres undefined) | -16% | ·
CCOP(=O)(OCC)/C(=N/OC(=O)c1ccc(Cl)cc1Cl)C(N)=O | 5% | 5%
COC(=O)c1ccccc1NC(=O)c1ccc(-c2ccc(Br)cc2)o1 | 7% | -2%
CCN(NC(=O)C(O)(c1ccc(F)cc1)c1ccc(F)cc1)C(=O)c1ccccc1 | -3% | 3%
CCOC(=O)c1sc(NC(=O)CN2CC(C)OC(C)C2)nc1C (centres undefined) | 0% | 2%
Cc1ccc(S(=O)(=O)CCSc2ccc(C(F)(F)F)cn2)cc1 | -2% | 0%
COc1ccc(OC(=O)Cc2cccc3ccccc23)cc1 | 4% | ·
COCCNC(=S)N1CCc2cc(OC)c(OC)cc2C1c1cccs1 (centres undefined) | -7% | 10%
O=C(Nc1ccccc1F)Nc1ccccc1F | 8% | 1%
CN(CCCCCCN(C)Cc1ccccc1O)Cc1ccccc1O | 0% | 5%
CC(C)CNC(=S)NC1CC2CCCC(C1)N2Cc1ccco1 (centres undefined) | 5% | -1%
Cn1c(CNC(=O)c2ccc3c(c2)OCO3)nnc1SCC(=O)Nc1ccc(F)cc1 | 0% | 14%
COc1ccc(-n2c(SCC(=O)Nc3nccs3)nc3sc4c(c3c2=O)CCN(C)C4)cc1 | 1% | 4%
C/C(=N/NC(=O)CNC(=O)COc1ccccc1)c1ccco1 | 2% | -2%
Cc1cc(C)c([C@@H]2C[C@H]3CN(C4CCCC4)C(=O)[C@]34CCCN24)c(-n2cccn2)c1 | 5% | ·
COc1ccc(S(=O)(=O)N2CCCCCC2)cc1C(=O)N(C)CCOc1ccc(Cl)cc1 | -1% | 4%
